# Compound activity as filed in PubChem.
# Autofluor counter: flagged as autofluorescent in microsphere protease counterscreen. compound autofluorescence counterscreen, microsphere flow cytometry; hits give high values. fluorescence intensity (no concentration beside the values). actives 3.1% (n = 360,000);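 active means at least 3 SD above the mean of all compounds, about 16000 in these data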;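 further: 100 nL of 1 mM stock went into each well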
# PrP UTR inh: inhibition of PrP 5' UTR reporter expression; cell-based PrP 5' UTR mRNA reporter, plate reader; inhibition, % (test concentration not listed); actives 0.35% (n = 340,000);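 active means every replicate at 50% or more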;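 further: 0 = median of the neutral control wells; tested in H4 reporter cells; numbers are from one replicate; inactives centre near -14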
# Starred values were filed as active, the others as inactive.
SMILES | Autofluor counter | PrP UTR inh
O=C(CN1C(=O)c2cccc([N+](=O)[O-])c2C1=O)N1CCN(S(=O)(=O)c2ccccc2)CC1 | 3923 | -7
CN(C)C(=O)N=NC(=O)N(C)C | 5495 | -7
COc1ccc([C@H]2CC(=O)C=C(c3ccc4ncccc4c3)C2)cc1OC | 2950 | -10
O=C(OCC(=O)N1CCCC1=O)c1cc2ccccc2o1 | 3007 | 0
COc1cccc(C2c3cc4c(cc3OC(C)(N3CCCC3)C2C)OCO4)c1O (configuration not stated) | 3811 | 3
O=C(NC1CC1)c1ccc(NC(=O)C2CCCC2)cc1 | 3347 | -22
C[C@@H]1CN([C@@H](C)CO)C(=O)c2cccc(NS(C)(=O)=O)c2O[C@H]1CN(C)CC1CCCCC1 | 4055 | -11
CC(C)(C)OC(=O)C[C@H]1C/C=C\C[C@@H](CC(=O)N(CCO)Cc2ccccc2)C(=O)N[C@@H](Cc2ccccc2)COC1=O | 4023 | -17
COc1ccc(CNc2nc(NCc3ccc(OC)cc3)c3ncn(C4CCCC4)c3n2)cc1 | 4490 | -24
O=C1NC[C@H](Cc2ccccc2)N(C[C@H]2CCCN2C[C@H](Cc2ccccc2)N2C[C@H](Cc3ccc(O)cc3)N(CC3CCCCCC3)C(=O)C2=O)C1=O | 3602 | -17
NC(=O)C1(Nc2ccc(-c3ccc(Cl)cc3)cc2)CCCC1 | 4305 | -24
OCC[C@H]1C[C@H](O)[C@@H](O)[C@@]2(CCc3ccccc3CO2)O1 | 3811 | -8
O=CN(Cc1ccccc1)c1cc([N+](=O)[O-])ccc1OCc1ccccc1 | 4108 | -22
O=C(NCc1ccccc1)c1ccc(C(=O)NCc2ccccc2)cc1 | 3890 | -20
CCCCOC(=O)COc1ccc(Cl)cc1Cl | 5472 | 8
C[C@H](CO)N1C[C@H](C)[C@H](CN(C)S(=O)(=O)c2cccs2)Oc2ccc(NC(=O)Nc3ccc4c(c3)OCO4)cc2CC1=O | 3466 | -18
Cc1ccc(S(=O)(=O)NC23CC4CC(CC(C4)C2)C3)cc1 | 2993 | 12
C#CCOCCOCCOCCNc1nc(N2CCN(C(=O)[C@H]([C@@H](C)CC)n3cc(CCC(=O)O)nn3)CC2)nc(N2CCN(C(=O)[C@H](CCCCN)n3cc(CC(C)O)nn3)CC2)n1 (some centres not stated) | 4326 | -5
CCOc1ccccc1C(=O)N/N=C/c1coc2ccc(Cl)cc2c1=O | 6867 | -1
CN(CCOc1ccccc1)C(=O)c1cc(-c2ccco2)nc2ccccc12 | 3923 | -3
COc1ccc2cc([C@H](C)C(=O)OCc3cn(CC(=O)c4ccc(O)cc4)nn3)ccc2c1 | 3813 | -24
C/C=C1/C[C@@H](C)[C@](O)(CO)C(=O)OCC2=CCN3CC[C@@H](OC1=O)[C@@H]23 | 5234 | -30
CC(=O)OCC1CC(COC(C)=O)C(COC(C)=O)CC1COC(C)=O (configuration not stated) | 3588 | -7
NC[C@H](Cc1ccccc1)NCCc1cc(C(F)(F)F)cc(C(F)(F)F)c1 | 2988 | -10
CC1CCCCCCC1OC(=O)c1ccccc1C(=O)O (configuration not stated) | 4038 | -13
CC(=O)Nc1ccc(C=NN=C2c3ccccc3-c3ccccc32)cc1 | 3159 | 26
O=C(c1c(O)cc(O)cc1O)C1c2c(cc(O)c3c2O[C@H](c2ccc(O)cc2)[C@@H](O)C3)OC1c1ccc(O)cc1 (some centres not stated) | 3312 | -17
CC[C@]12CCCN3CCc4c(n(c5ccccc45)C(=O)C1)[C@@H]32 | 5982 | -12
COc1cc(Cl)c(CNC[C@H]2O[C@@H](n3ccc(=O)[nH]c3=O)[C@H](O)[C@@H]2O)c(Cl)c1O | 3390 | -102
CCN1C[C@@H]2[C@@H]3C(=O)N(C)C(=O)[C@@H]3[C@](Cc3ccccc3)(C1=O)N2C(=O)c1ccc(Cl)cc1 | 4170 | -9

# Reprinted from above, 2 compounds:
SMILES | Autofluor counter | PrP UTR inh
COc1ccc2cc([C@H](C)C(=O)OCc3cn(CC(=O)c4ccc(O)cc4)nn3)ccc2c1 | 3813 | -24
C/C=C1/C[C@@H](C)[C@](O)(CO)C(=O)OCC2=CCN3CC[C@@H](OC1=O)[C@@H]23 | 5234 | -30

# The listing continues:
SMILES | Autofluor counter | PrP UTR inh
CCOC(=O)Nc1ccc(Cc2ccncc2)cc1 | 4200 | 6
S=C(S)N1CCCC1 | 4235 | 5
CCN(CC)C(=O)[C@H]1CC(CC(=O)NCc2ccc(OC)c(OC)c2)C(=O)N2CCc3c([nH]c4ccccc34)[C@]12C (some centres not stated) | 2820 | -19
F[B-](F)(F)c1cnc2ccccc2c1 | 3843 | -17
CC(C)C[C@@H](CNCC(=O)[C@H](CC(C)C)NC(=O)c1[nH]cnc1C(=O)N[C@H](CN)CC(C)C)NC(=O)c1nc[nH]c1C(=O)N[C@@H](CC(=O)O)C(=O)O | 3370 | -5
C[C@H](CO)N1C[C@H](C)[C@@H](CN(C)C(=O)Nc2ccc(C(F)(F)F)cc2)Oc2ccc(NS(=O)(=O)c3cccs3)cc2C1=O | 2927 | -7
COc1cccc(OC)c1OC(=O)c1ccccc1 | 4497 | -10
O=C1NC(=O)/C(=C/c2ccco2)N1 | 3481 | -9
CCN1C(=O)[C@H]2[C@@H](c3ccc(-c4ccc(C(C)=O)cc4)cc3)N[C@@](C)(C(=O)OC)[C@H]2C1=O | 4208 | -17
O=C(Cn1ncc(Cl)c(Cl)c1=O)c1ccc2c(c1)OCCO2 | 4076 | -7
O=C(C[C@@H]1C/C=C\CCCC(=O)OC[C@@H]2CCCN2C1=O)NCCO | 3279 | -17
COc1cc(/C=C2\SC(=S)N(NC(C)=O)C2=O)ccc1OC(=O)c1ccco1 | 3945 | -43
CCOC(=O)/C=C/[C@H]1Cc2ccccc2CO1 | 3017 | -22
COc1ccc(N(Cc2ccccc2)S(=O)(=O)c2cccc(C(=O)Nc3ncccc3C)c2)cc1 | 3905 | -7
COC1=C(C)C(=O)C2=C(C1=O)C1C3CC4=C(C(=O)C(OC)=C(C)C4=O)C(CNC(=O)C(C)=O)N3C(C#N)C(C2)N1C (configuration not stated) | 3794 | 94*
CNC[C@H]1Oc2ccc(NC(=O)Nc3ccc4c(c3)OCO4)cc2C(=O)N([C@H](C)CO)C[C@@H]1C | 3974 | -8
COCC(=O)OC1CCn2c1nc1c2C(=O)C(C)=C(NC(C)=O)C1=O (configuration not stated) | 3950 | -26
COc1ccc(Cl)cc1C1=CC(=O)C[C@H](c2ccc(F)cc2)C1 | 3851 | -6
CCn1c(SCCN2CCCCC2)nc2c1c(=O)n(C)c(=O)n2C | 4006 | -6
OCC[C@H]1C[C@@H](O)[C@H](O)[C@@]2(CCc3ccccc3O2)O1 | 3815 | -9

> CN(C)CC/C=C1\c2ccccc2CSc2ccccc21
- Autofluor counter = 4166
- PrP UTR inh = -22
> C=C[C@]1(C)C=C2CC[C@H]3[C@@](C)(CCC[C@@]3(C)C(=O)O)[C@@H]2CC1
- Autofluor counter = 2956
- PrP UTR inh = -6
> CC(C)NC(=O)N(C)C[C@@H]1Oc2c(NS(=O)(=O)c3ccccc3)cccc2C(=O)N([C@@H](C)CO)C[C@@H]1C
- Autofluor counter = 3368
- PrP UTR inh = -14
> COc1ccc(S(=O)(=O)N2CCC3CC2c2cc(N4CCOCC4)ccc23)cc1 (configuration not stated)
- Autofluor counter = 3596
- PrP UTR inh = -26
> Cc1noc(C)c1S(=O)(=O)N(C)C[C@H]1Oc2c(NC(=O)NC3CCCCC3)cccc2C(=O)N([C@H](C)CO)C[C@@H]1C
- Autofluor counter = 3533
- PrP UTR inh = -25
> COc1ccc(/C=N/n2cnnc2)cc1Oc1nc(Cl)ncc1F
- Autofluor counter = 4328
- PrP UTR inh = -9
> O=C1C=C(c2ccc(F)cc2OCc2ccccc2)C[C@@H](c2ccc(F)cc2)C1
- Autofluor counter = 4067
- PrP UTR inh = -7
> COC(=O)/C=C/C1=CN(Cc2ccccc2)CCC1=O
- Autofluor counter = 3789
- PrP UTR inh = -12
> COC(=O)C1=C(c2cccc(OCc3ccccc3)c2)C[C@@H]2CC[C@H]1N2C(=O)NCCc1ccc(F)cc1
- Autofluor counter = 3626
- PrP UTR inh = -18
> O=C(O)CN(CC(=O)O)CC(=O)O
- Autofluor counter = 6030
- PrP UTR inh = -14
> C=CC[C@@H](CC(=O)N(CCO)Cc1ccccc1)C(=O)N[C@@H](C)COC(=O)[C@@H](CC=C)Cc1ccc(F)cc1
- Autofluor counter = 3520
- PrP UTR inh = -15
> CCN(C[C@H]1N[C@@](CC)(C(=O)OC)[C@H]2C(=O)N(Cc3ccccc3)C(=O)[C@@H]12)S(=O)(=O)c1ccc(C)cc1
- Autofluor counter = 3556
- PrP UTR inh = -15
> CN(C)CCOC1(Cc2ccc(F)cc2)CCC(C(C)(C)C)CC1 (configuration not stated)
- Autofluor counter = 3405
- PrP UTR inh = -30
> O=C(NN=Cc1cccc([N+](=O)[O-])c1)c1cccc2ccccc12
- Autofluor counter = 3807
- PrP UTR inh = -29
> C[C@@]12C(=O)N(Cc3ccccc3)CC(=O)N1[C@H]1c3cc(Cl)ccc3OC[C@@H]1[C@@H]2c1ccccc1
- Autofluor counter = 4135
- PrP UTR inh = -10
> NC(CSC1(c2ccccc2)c2ccccc2-c2ccccc21)C(=O)O (configuration not stated)
- Autofluor counter = 2892
- PrP UTR inh = -11
> C=CCC[C@H](Cc1ccc(F)cc1)C(=O)OC[C@@H](Cc1c[nH]c2ccccc12)NC(=O)[C@@H](CC=C)CC(=O)N[C@H](CO)Cc1ccccc1
- Autofluor counter = 3596
- PrP UTR inh = -11
> CN1CCN(/C=N/c2c(C#N)cnn2-c2ccccc2)CC1
- Autofluor counter = 4751
- PrP UTR inh = -12
> CC1=C(C)CC2(C(=O)NC(=O)NC2=O)C(C)C1 (configuration not stated)
- Autofluor counter = 4161
- PrP UTR inh = -13
> COc1ccc(-c2sc3cc4c(cc3c2C#CC2(O)CCCCC2)OCO4)cc1
- Autofluor counter = 4418
- PrP UTR inh = -20
> CC(=O)Nc1cccc(-c2cnc(N)c(C(=O)c3cccnc3)n2)c1
- Autofluor counter = 2799
- PrP UTR inh = 52
> CC[C@H](C)[C@H]1CNC(=S)N1CC1CCN(CCC(C)(C)C)CC1
- Autofluor counter = 3878
- PrP UTR inh = -6
> Cc1ccc(C2(SCC(N)C(=O)O)c3ccccc3-c3ccccc32)cc1 (configuration not stated)
- Autofluor counter = 3523
- PrP UTR inh = 89*
> COC(=O)C1=C(c2cccc(OCc3ccccc3)c2)C[C@@H]2CC[C@H]1N2C(=O)NCc1cccc(F)c1
- Autofluor counter = 4270
- PrP UTR inh = -17
> Cc1ccc(/C=N/NC(=O)c2nnn(-c3nonc3N)c2C)o1
- Autofluor counter = 5222
- PrP UTR inh = -34

> COc1ccc(OC)c(-c2nnc3n2N=C(c2ccc(OC(F)F)c(OCC4CC4)c2)CS3)c1
- Autofluor counter = 3940
- PrP UTR inh = -11
> CC(C)(C)OC(=O)C[C@@H]1C/C=C\C[C@H](CC(=O)NCCO)C(=O)NC[C@H](c2ccccc2)OC1=O
- Autofluor counter = 4023
- PrP UTR inh = -15
> CC(C)NC(=O)Nc1cccc2c1O[C@H](CN(C)S(=O)(=O)c1ccccc1)[C@@H](C)CN([C@H](C)CO)C2=O
- Autofluor counter = 4084
- PrP UTR inh = -1
> COc1ccc(C)cc1NC(=O)C1CC(=O)N(CCc2ccc(F)cc2)C1 (configuration not stated)
- Autofluor counter = 2959
- PrP UTR inh = -15
> COc1ccccc1-c1cccc([C@@H]2C[C@H]3[C@@H](CN2)CON3C)c1
- Autofluor counter = 4512
- PrP UTR inh = -7
> CC(C(=O)O)C(=O)O
- Autofluor counter = 5818
- PrP UTR inh = -13
> CC(C)(C)OC(=O)N[C@@H](C(=O)OC(C)(C)C)c1ccc2ccccc2c1
- Autofluor counter = 3632
- PrP UTR inh = -8
> CCNC(=S)N/N=C(\C)c1cccc(C(F)(F)F)c1
- Autofluor counter = 4598
- PrP UTR inh = -21
> CCOC(=O)[C@H]1[C@H]2COc3ccc(Br)cc3[C@H]2N2C(=O)CN(CCc3c[nH]c4ccccc34)C(=O)[C@@]12C
- Autofluor counter = 3124
- PrP UTR inh = -9
> CN(C)CCC(O)(c1ccccc1)c1ccccc1Cl (configuration not stated)
- Autofluor counter = 3872
- PrP UTR inh = -16
> CCN(C[C@H]1N[C@@](Cc2ccccc2)(C(=O)OC)[C@H]2C(=O)N(Cc3ccccc3)C(=O)[C@@H]12)C(=O)COc1ccccc1
- Autofluor counter = 3689
- PrP UTR inh = -25

# In the list so far, ten have a Cl atom:
> NC(=O)C1(Nc2ccc(-c3ccc(Cl)cc3)cc2)CCCC1
- Autofluor counter = 4305
- PrP UTR inh = -24
> CCCCOC(=O)COc1ccc(Cl)cc1Cl
- Autofluor counter = 5472
- PrP UTR inh = 8
> CCOc1ccccc1C(=O)N/N=C/c1coc2ccc(Cl)cc2c1=O
- Autofluor counter = 6867
- PrP UTR inh = -1
> COc1cc(Cl)c(CNC[C@H]2O[C@@H](n3ccc(=O)[nH]c3=O)[C@H](O)[C@@H]2O)c(Cl)c1O
- Autofluor counter = 3390
- PrP UTR inh = -102
> CCN1C[C@@H]2[C@@H]3C(=O)N(C)C(=O)[C@@H]3[C@](Cc3ccccc3)(C1=O)N2C(=O)c1ccc(Cl)cc1
- Autofluor counter = 4170
- PrP UTR inh = -9
> O=C(Cn1ncc(Cl)c(Cl)c1=O)c1ccc2c(c1)OCCO2
- Autofluor counter = 4076
- PrP UTR inh = -7
> COc1ccc(Cl)cc1C1=CC(=O)C[C@H](c2ccc(F)cc2)C1
- Autofluor counter = 3851
- PrP UTR inh = -6
> COc1ccc(/C=N/n2cnnc2)cc1Oc1nc(Cl)ncc1F
- Autofluor counter = 4328
- PrP UTR inh = -9
> C[C@@]12C(=O)N(Cc3ccccc3)CC(=O)N1[C@H]1c3cc(Cl)ccc3OC[C@@H]1[C@@H]2c1ccccc1
- Autofluor counter = 4135
- PrP UTR inh = -10
> CN(C)CCC(O)(c1ccccc1)c1ccccc1Cl (configuration not stated)
- Autofluor counter = 3872
- PrP UTR inh = -16

# An excerpt. The share of hits here may be higher or lower than overall.
